VDR inhibitor: inhibitors of human vitamin D receptor | VDR-SRC2-3 peptide fluorescence polarization, 2 h | P11473 | Potency, µM, inactives show max response, negative = inhibition, most hits filed as inhibitors | hit rate 0.93% among 400,000 | AID 504847; active = well fitted inhibition curve with a large enough effect; inconclusive = small, poorly fitted or top-dose-only effect, or another doubt; inactive = no such curve, though single readings can be large or run the other way; also: series mostly up to about 120 µM
Target sequence (P11473 whole entry, looked up): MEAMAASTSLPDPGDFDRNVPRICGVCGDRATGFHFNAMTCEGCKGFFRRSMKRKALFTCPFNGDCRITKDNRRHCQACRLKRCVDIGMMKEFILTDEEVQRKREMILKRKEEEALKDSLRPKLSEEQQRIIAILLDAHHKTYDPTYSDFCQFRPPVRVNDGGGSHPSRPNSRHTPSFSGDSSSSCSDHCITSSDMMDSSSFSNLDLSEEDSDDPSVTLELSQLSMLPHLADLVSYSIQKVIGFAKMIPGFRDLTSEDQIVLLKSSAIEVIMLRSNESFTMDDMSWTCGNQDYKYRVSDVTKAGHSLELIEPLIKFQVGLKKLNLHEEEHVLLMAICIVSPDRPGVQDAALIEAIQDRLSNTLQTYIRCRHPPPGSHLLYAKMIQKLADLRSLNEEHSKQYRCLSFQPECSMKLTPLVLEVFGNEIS
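Inhibition of the VDR/SRC2-3 peptide interaction is quantified by fluorescence polarization. Compounds (23 nl, pintool) incubate with the reagents for 2 hours at ambient room temperature.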
Numbers without * were called inactive; ? = inconclusive; & = joins results of further samples. % is scaled to controls: 0 for no effect and ±100 for the full control effect; potency is read from the fitted curve at half-maximal effect.

SMILES	VDR inhibitor
Cc1ccc(S(=O)(=O)N2CCCCC2C(=O)O)cc1 (configuration not stated)	15%
COc1ccc(/C=N\Nc2ncc(F)c(N3CCOCC3)n2)cc1OC	-5%
CC1CCN(Cc2ccc(-c3nnn(CC(=O)NC4CCCCC4)n3)cc2)CC1	21%
Cc1nc(SCC(=O)Nc2c(C)n(C)n(-c3ccccc3)c2=O)[nH]c(=O)c1Cc1ccccc1	14%
COc1cnn(-c2ccccc2)c(=O)c1SCc1ccc(Cl)c(Cl)c1	-8%
CS(=O)(=O)N(CC(=O)NCc1ccco1)c1ccc(Cl)cc1Cl	7%
N#Cc1c(-c2ccc(Cl)cc2)c(C#N)c(=O)n(N)c1N	12%
S=C(NCCN(C1CCCCC1)C1CCCC1)Nc1cccc(Cl)c1	-13%
COc1cc(C(=S)N2CCCC2)ccc1OCc1ccccc1	-16%
COc1cc2c(cc1OC)C(C)N(C(=O)c1cc(Cl)nc(Cl)c1)CC2 (configuration not stated)	16%
CCOC(=O)C(C)(C)Sc1nc2c(cnn2-c2ccc(C)cc2)c(=O)[nH]1	-9%
CC(=O)N1c2ccc(S(=O)(=O)NCc3ccccc3Cl)cc2CC1C (configuration not stated)	16%&1%
Cc1ccc(/C=N/N2CCN(C3c4ccccc4-c4ccccc43)CC2)o1	-16%
COc1cc(C(=O)NC2CCCc3ccccc32)cc(OC)c1C (configuration not stated)	-5%
CCOC(=O)c1c(N)n[nH]c1-c1ccccc1	-2%
Cc1nccn1CCC(=O)O	-1%
O=[N+]([O-])/C(C(Cl)=C(Cl)Cl)=C(/Sc1ccccc1)N1CCCCC1	-7%
Cc1ccc2nc3c(cc2c1)c(NS(=O)(=O)c1ccccc1)nn3CC(C)C	10%
Cc1cc(C)nc(N/N=C/c2ccccc2OCc2ccc(Br)cc2)n1	0%
Cc1cc(NC(=O)CSc2nc(-c3ccccc3)c(C#N)c(=O)[nH]2)no1	8%
O=C1CS/C(=C/C(=O)c2ccccc2)N1	2%
Cc1[nH]c(C)c2c(=O)n(-c3ccccc3)ncc12	-5%
C=CCN(CC=C)CCOc1ccc2ccccc2c1	-9%
C=CCOC(=O)C1=C(C)Nc2[nH]c(=O)[nH]c(=O)c2C1c1ccccc1 (configuration not stated)	7%
O=[N+]([O-])c1ccccc1CNCCCCCO	?
Cc1nc(C(=O)Nc2ccccc2Cl)cc2c1[nH]c1ccccc12	-9%
CCN(CC)C(=O)CSc1nc2ccccc2c(=O)n1-c1cccc(OC)c1	-7%
O=C(OCc1nc2ccsc2c(=O)[nH]1)c1ccco1	3%
CCOC(=O)Cc1nnc(Nc2ccc(C(=O)NC)cc2)c2ccccc12	-6%
COc1ccc(CC(=O)OCC(=O)Nc2ccc3c(c2)OCCO3)cc1OC	-12%

Arranged by heavy-atom count (largest number first): some entries from above.
SMILES	VDR inhibitor
C=CCOC(=O)C1=C(C)Nc2[nH]c(=O)[nH]c(=O)c2C1c1ccccc1 (configuration not stated)	7%
Cc1[nH]c(C)c2c(=O)n(-c3ccccc3)ncc12	-5%
O=[N+]([O-])c1ccccc1CNCCCCCO	?

(list continues)
SMILES	VDR inhibitor
Cc1ccccc1OCC(=O)Nc1ccc(N2CCOCC2)cc1N1CCOCC1	-9%
O=C(O)c1ccc(N2C(=O)CC(N3CCN(c4cccc(C(F)(F)F)c4)CC3)C2=O)cc1 (configuration not stated)	-7%
O=C(COC(=O)c1ccc(Cl)cc1[N+](=O)[O-])NCc1ccco1	-1%
Cn1c(-c2ccc(Cl)cc2)cnc1NCc1cc2c(cc1[N+](=O)[O-])OCO2	-18%
CCOC(=O)N1CCC(NC(=O)C2CCN(c3ccc(N4CCOCC4)nn3)CC2)CC1	8%
CC(C)(C)C1CCC(C(=O)Nc2cccnc2)CC1 (configuration not stated)	7%
CC1=C(C(=O)OC2CCCC2)C(c2coc3ccc(C)cc3c2=O)C2=C(CCCC2=O)N1 (configuration not stated)	-3%
COc1ccc(NC(=O)c2ccc(CN3CCc4ccccc4C3)cc2)c(OC)c1	-11%
CCCc1cc(=O)[nH]c(SCC(=O)Nc2ccc(C(=O)Nc3ccccc3OC)cc2)n1	-9%
Cc1cc(=O)oc2c3c(cc(OCC(=O)NCc4ccco4)c12)OC(C)(C)CC3	8%
CCCCOC(=O)c1ccc(Nc2ccc([N+](=O)[O-])cn2)cc1	8%
COc1ccc(C(=O)NC(=S)Nc2ccc(Cl)cn2)cc1OC	-2%
CCN(CC)S(=O)(=O)c1c(Br)cc(C)cc1Br	0%
CCn1c(C(=O)NCc2ccccc2)cc2sc(Cl)cc21	7%
Cc1cc(C)n(-c2nc(C)c(C)c(=O)n2CC(=O)Nc2cccc([N+](=O)[O-])c2)n1	0%
COCCNC(=O)c1onc(CSc2cccc(OC)c2)c1C(=O)NCCOC	-15%
Cn1c(-c2ccc(Cl)nc2)nc2ccccc21	-14%
COCCn1c(SCC(=O)c2[nH]c(C)c(C(C)=O)c2C)nc2ccccc21	9%
COc1ccc(CN(C)C(=O)Cn2cnc3c(SC)nc(N)nc32)cc1OC	9%
CC1CCc2c(sc(NC(=O)CCCOc3ccc(C(C)(C)C)cc3)c2C(N)=O)C1 (configuration not stated)	-6%
Cc1cccc2nc(CSC(=N)N)c(Br)n12	-16%
CCNCCNC(=O)c1c(O)c2cccc3c2n(c1=O)CCC3	7%
Cc1ccc(CNS(=O)(=O)c2c(C(=O)N3CCCCC3)c(C)n(C)c2C)cc1	-7%
CCN(C(=O)COC(=O)CSc1ccc(C)cc1C)c1c(N)n(Cc2ccccc2)c(=O)[nH]c1=O	?
CC(C)CCn1c(N2CCC(C(N)=O)CC2)nc2c1c(=O)[nH]c(=O)n2C	-1%
Cc1cc(C(=O)OCC(=O)N2CCN(C(=O)c3ccco3)CC2)c(C)n1-c1ccc(F)cc1	-4%
O=C(Cn1nc(-c2ccccc2)c2ccccc2c1=O)Nc1ccccn1	-7%
Cc1cc(C)nc(N2CCCC(C(=O)Nc3ccc4c(c3)OCO4)C2)n1 (configuration not stated)	-2%
CCCS(=O)(=O)N1CCCC(C(=O)NCCc2ccccc2)C1 (configuration not stated)	19%
COc1ccc(OCC(=O)Nc2ccccc2OC(F)F)cc1	-7%

3 of these compounds in another layout.
VDR inhibitor | mol
-1% | CC(C)CCn1c(N2CCC(C(N)=O)CC2)nc2c1c(=O)[nH]c(=O)n2C
-4% | Cc1cc(C(=O)OCC(=O)N2CCN(C(=O)c3ccco3)CC2)c(C)n1-c1ccc(F)cc1
-7% | O=C(Cn1nc(-c2ccccc2)c2ccccc2c1=O)Nc1ccccn1

Remaining list, next part:
SMILES	VDR inhibitor
CCCN(C(=O)c1cc2c(=O)oc3ccccc3c2s1)c1ccc(CC)cc1	6%
CCCOC(=O)c1ccc(-n2nnnc2SCC(=O)N2CCCCC2)cc1	10%
CC1(C)CC(=O)C=C(NCc2cccs2)C1	-7%
Cn1c(SCC(=O)NCC2CCCO2)nc2scc(-c3ccccc3)c2c1=O (configuration not stated)	-15%
CC(C)C(NC(=O)C1(NC(=O)OCc2ccccc2)CCCC1)C(=O)O (configuration not stated)	-19%
CC(=O)Nc1ccc(S(=O)(=O)NCC(=O)NNC(=O)COc2ccccc2Cl)cc1	-27%
COCCNC(=S)NNC(=O)c1cccs1	-8%
O=C(CSc1ccccn1)N1CCNC1=O	5%
O=c1[nH]c(-c2ccc(O)cc2)nc2scc(-c3cccs3)c12	9%
CC(OC(=O)c1cccc([N+](=O)[O-])c1)C(=O)NCc1ccc2c(c1)OCO2 (configuration not stated)	-9%

Seven of the entries above in order of the VDR inhibitor value, smallest number first:
| Compound | VDR inhibitor |
| --- | --- |
| CC(=O)Nc1ccc(S(=O)(=O)NCC(=O)NNC(=O)COc2ccccc2Cl)cc1 | -27% |
| CC(C)C(NC(=O)C1(NC(=O)OCc2ccccc2)CCCC1)C(=O)O (configuration not stated) | -19% |
| Cn1c(SCC(=O)NCC2CCCO2)nc2scc(-c3ccccc3)c2c1=O (configuration not stated) | -15% |
| CC(OC(=O)c1cccc([N+](=O)[O-])c1)C(=O)NCc1ccc2c(c1)OCO2 (configuration not stated) | -9% |
| COCCNC(=S)NNC(=O)c1cccs1 | -8% |
| CCCN(C(=O)c1cc2c(=O)oc3ccccc3c2s1)c1ccc(CC)cc1 | 6% |
| O=c1[nH]c(-c2ccc(O)cc2)nc2scc(-c3cccs3)c12 | 9% |

Later entries.
SMILES	VDR inhibitor
Cc1ccc2c(c1)cc(CN(Cc1ccco1)C(=O)N1CCOCC1)c1nnnn12	-11%
Cc1oc(-c2ccccc2Cl)nc1CS(=O)(=O)CC(=O)NCCc1ccccc1	-13%
COc1ccc(C2c3c(oc4ccc(F)cc4c3=O)C(=O)N2Cc2ccc3c(c2)OCO3)cc1 (configuration not stated)	15%
CC(C)c1ccc(/C=C/C(=O)NC(=S)NN2CCOCC2)cc1	-19%
NC(=O)CSC1=N/C(=C\c2ccco2)C(=O)N1c1ccc(OC(F)F)cc1	?
COc1ccc(Cl)cc1-c1nc(SCC(=O)NC(C)C(C)C)n[nH]1 (configuration not stated)	3%
O=C(CSc1nnnn1-c1cccc2ccccc12)N1CCOCC1	7%
O=C(CC12CCC(CC1)C2)NCc1ccc2c(c1)OCO2	-4%
OCCC1CN(Cc2cnn(-c3ccc(F)cc3)c2)CCN1Cc1ccsc1 (configuration not stated)	-4%
CN(CC(=O)Nc1ccc(Cl)c(Cl)c1)C1CCCCC1	3%
CC(=O)Nc1ccc(S(=O)(=O)Nc2ccc(S(=O)(=O)Nc3ncccn3)cc2)cc1	4%
COC(=O)C1=C(C)NC2=C(C1c1ccc(O)cc1)S(=O)(=O)c1ccccc12 (configuration not stated)	-4%
Cc1cc(Nc2ccc(F)cc2)n2nc(C)nc2n1	-3%
COC(=O)C1=C(O)/C(=C\c2ccc(OCC(=O)Nc3ccccc3OC)cc2)N=C1C	?
COc1cccc(C(=O)Nc2ccc(S(=O)(=O)N3CCCCC3)cc2)c1OC	9%
CCN1C[C@@H]2[C@@H]3C(=O)N(Cc4ccccc4)C(=O)[C@@H]3[C@](CC)(C1=O)N2C(=O)c1ccc(F)cc1	-20%
CC#CC(=O)NC1CCCN(C2Cc3ccccc3C2)C1 (configuration not stated)	-1%
CN(Cc1ccccc1)c1nc2c(S(=O)(=O)c3cccc(Cl)c3)nnn2c2ccsc12	0%
COc1cc(CC(=O)N(c2ccccc2)c2nc(C)cs2)cc(OC)c1OC	-18%
COc1ccc(-n2ncc3c2CC(C)(C)CC3NC(=O)C2=CC(=O)CC(C)(C)O2)cc1 (configuration not stated)	-2%
CCOC(=O)c1ccc(NC(=O)CCc2c(C)nc3c(-c4ccc(F)cc4)c(C)nn3c2C)cc1	-13%
CCc1ccc(NC(=S)Nc2ccc3[nH]c(=O)[nH]c3c2)cc1	4%
O=C(Cc1coc2cc3c(cc12)CCC3)NCC1(N2CCCCC2)CCCCC1	-5%
COc1ccc(C(=O)N[C@H](C(=O)NCC2CCCCC2)C(C)C)cc1	1%
COc1ccccc1C(=O)Oc1ccc2ccc(=O)oc2c1	6%
Clc1ccc(C=NN2CCCCCC2)cc1	-7%
CCc1ccccc1NC(=S)NCC1CCN(c2ccc(OC)cc2)C1 (configuration not stated)	-7%
CCCN(CC(=O)Nc1ccccc1OC)C(=O)c1ccc(S(=O)(=O)Nc2ccccc2OC)cc1	-11%
COc1ccc(OC)c(NC(=O)C2CCCN2C(=O)NC2CCCCC2)c1 (configuration not stated)	14%
O=C(CN1C(=O)NC2(CCCC2)C1=O)Oc1ccc2ccc(=O)oc2c1	-21%
CN(C)c1ccc(NC(=O)Nc2cccc(Cl)c2)cc1	-4%
CC1(c2ccccc2)NC(=O)N(Cc2ccc([N+](=O)[O-])cc2)C1=O (configuration not stated)	-27%
CNc1nc(-c2ccc(C(=O)N(C)C)cc2)nc2ccccc12	-18%
Cc1cccc(C)c1NC(=O)CCSCCc1ccccn1	7%
N#Cc1ccc(Nc2nc(-c3ccc(O)cc3O)cs2)cc1C(F)(F)F	-11%
Cc1nnc(C)n1-c1ccc(C(=O)Nc2cccc(Br)c2)cc1	1%
NC(=O)CC(c1ccccc1)c1ccc2c(c1)OCO2 (configuration not stated)	6%
COc1nccnc1NS(=O)(=O)c1ccc(N=Cc2c(C)[nH]n(-c3ccccc3)c2=O)cc1	11%
Cc1ccc2c(=O)cc(C(=O)Nc3ccc(S(=O)(=O)N4CCCC(C)C4)cc3)oc2c1C (configuration not stated)	6%
Oc1[nH]c2ccccc2c1N=Nc1ccc(F)cc1	-20%
COc1ccc(/C=C(/C#N)c2nc(-c3ccc(-c4ccccc4)cc3)cs2)cc1OC	0%
CCc1nnc(NC(=O)c2ccc(S(=O)(=O)N3CCOCC3)cc2)s1	7%
CCCOC(=O)c1cccc(NC(=O)c2c(-c3ccccc3Cl)noc2C)c1	10%
Cc1ccccc1S(=O)(=O)N1[C@@H](c2ccccc2)C(C(=O)O)=CC[C@H]1c1ccc(Cl)cc1	?
COc1ccc(C(=O)O)nc1C	-6%
Cc1ccccc1NC(=O)c1ccccc1NC(=O)c1cccs1	6%
COc1ccccc1C(=O)Nc1nc(-c2ccc3c(c2)OCCO3)cs1	4%
CCCNC(=O)NS(=O)(=O)c1cnccc1Sc1ccc(Cl)c(Cl)c1	-22%
CCCCN1CC(COCc2ccccc2)Oc2cccc(Oc3ccc(C(C)C)cc3)c2S1(=O)=O (configuration not stated)	0%
CSc1cccc(NC(=O)c2cnn(-c3ccc(F)cc3)c2-n2cccc2)c1	6%
Next compounds follow.
SMILES	VDR inhibitor
Cn1ncc(Br)c1C(=O)N/N=C/c1cccc(OC2CSC2)c1	-6%
CCOC(=O)c1c(NC(=O)C(C)Sc2cccc[n+]2[O-])sc2c1CCN(Cc1ccccc1)C2 (configuration not stated)	-21%
COC(=O)CN(c1ccc2c(c1)OCO2)S(=O)(=O)c1c(C)[nH]c(=O)[nH]c1=O	-1%
COc1cccc(-c2nn3c(-c4ccco4)nnc3s2)c1	-19%
CCS(=O)(=O)c1ccc(S(=O)(=O)CC)s1	-4%

The list is partial. The share of hits here may be higher or lower than overall.
